eIF4H FP inh: human eIF4H binding inhibitors, primary screen, translation initiation inhibitor project, biochemical, uHTS, fluorescence polarization. inhibition, % at 35 µM. 290,000 tested, 0.94% active. AID 2012, 2009. Eukaryotic translation initiation factor 4H (Homo sapiens), Q15056. eIF4H fluorescence polarization binding assay;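 active = 50% or more with normal probe brightness, or confirmed in later tests; inconclusive = above 50% with abnormal brightness, or retests that disagree; inactive = below 50% or failed in later tests; about a fifth of its hits are not listed in these tables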;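 also: calls also rest on retests at 20 µM and on dose response follow-up; 0% = protein and probe with vehicle and 100% = probe without protein; strong numbers were not always called active; many hits fall short of the cut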
MT1-MMP act inh: blockers of MT1-MMP proenzyme processing, primary screen, HT1080 RFP-PRO-GFP cells, GFP/RFP fluorescence; 360,000 tested, 0.061% active; GFP/RFP ratio fluorescence, overnight; percent of plate control window, DMSO zero; GFP/RFP ratio change, % at 20 µM; AID 651647, 2012; Matrix metalloproteinase-14 (Homo sapiens), P50281;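 active = GFP/RFP ratio change of at least 30% with cell ATP level not reduced by more than half and red fluorescence within 50% of control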; also: strong numbers were not always called active
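Material: RFP-PRO-GFP reporter HT1080 cells. Dosing: single-point 20 µM compound, 1% DMSO. Controls: DMSO and RFP-L50D-GFP cell wells. Timing: cells overnight before dosing, compound overnight, 37 °C, 5% CO2. Measure: GFP/RFP fluorescence ratio.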
PABP polyA inh: PABP poly(A) RNA binding inhibitors, primary screen, biochemical, fluorescence polarization, uHTS | Polyadenylate-binding protein 1 (Homo sapiens), P11940 | inhibition, % at 35 µM | 290,000 tested, 1% active | AID 2014, 2009;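 active = 50% or more with normal probe brightness, or confirmed in later tests; inconclusive = above 50% with abnormal brightness, or retests that disagree; inactive = below 50% or failed in later tests; about a fifth of its hits are not listed in these tables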;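 also: calls also rest on retests at 20 µM and on dose response follow-up; controls were probe without protein and protein plus probe with vehicle; some compounds called inactive have numbers as strong as hits; many hits fall short of the cut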
Rce1 inhib: yeast Rce1p protease inhibitors, primary screen, biochemical, fluorescence, cell-free homogeneous; CAAX prenyl protease 2 (Saccharomyces cerevisiae (strain ATCC 204508 / S288c)), Q03530; yeast membranes, quenched prenylated peptide cleavage fluorescence; calls only; 290,000 tested, 0.27% active; AID 2563, 2010;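 active = fall in fluorescence gain of 50% or more versus controls, with final raw signal at or below 3038400; inconclusive = same 50% fall but final raw signal above 3038400; inactive = fall in fluorescence gain under 50%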;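 also: plate controls were neutral control wells for no effect and wells lacking membranes for full effect; tested at 10 µM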
Target sequence (Q03530 whole entry, looked up): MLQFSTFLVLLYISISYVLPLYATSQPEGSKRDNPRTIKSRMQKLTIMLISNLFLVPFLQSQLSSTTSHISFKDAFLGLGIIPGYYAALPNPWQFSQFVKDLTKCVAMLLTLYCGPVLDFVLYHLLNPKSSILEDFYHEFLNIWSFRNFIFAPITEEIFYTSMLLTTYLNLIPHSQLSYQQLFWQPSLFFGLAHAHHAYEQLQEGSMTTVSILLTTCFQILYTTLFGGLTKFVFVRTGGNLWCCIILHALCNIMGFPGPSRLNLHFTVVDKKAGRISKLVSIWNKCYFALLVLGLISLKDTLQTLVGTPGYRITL
Yeast UUG start: modulators of yeast start codon fidelity, primary screen, whole organism, S. cerevisiae, single point, plate reader | S. cerevisiae UUG-firefly luciferase reporter, luminescence/redox ratio | activity score, % at 18.7 µM | 350,000 tested, 0.13% active | AID 602363, 2012;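 active = replicate mean at a twofold rise or more, about +100% in these data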;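 also: firefly luciferase made from a UUG start codon reports start codon fidelity; reporter light over untreated wells divided by growth signal over untreated wells; some hits fall short of that in this replicate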
CSC inhib: cancer stem cell viability inhibitors, primary screen, luminescence; cancer stem cell-like cells viability; inhibition, % at 7.5 µM; 300,000 tested, 1.1% active; AID 2717, 2010;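 active = mean at 75% or more and at least half the replicates too; inconclusive = mean and replicates disagree; tested in HMLE shEcad cells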;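 also: 0% = median of negative and 100% = median of positive control wells; the first replicate is given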
HIV Env fusion: inhibitors of HIV-1 Env-driven cell-cell fusion, primary screen, HeLa-JRFL effector, CEM21 target cells, luciferase. inhibition, % at 12.3 µM. 360,000 tested, 1.1% active. AID 651610, 2012;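 active = mean replicate inhibition score of at least 50 and every replicate individually at or above 50; inconclusive = only one of the two criteria met; inactive = mean below 50 and not all replicates reaching 50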;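 also: 0% = plate neutral controls and 100% = maraviroc near 300 nM; one replicate is shown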
eIF4H FP inh retest: also measured in eIF4H FP inh; calls as there; inhibition, %; compound at 20 µM; confirmation average;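 mean of two retest wells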
PABP polyA inh retest: also measured in PABP polyA inh; calls as there; inhibition, %; compound at 20 µM; confirmation repeats;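 mean of two retest wells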
MT1-MMP act inh RFP: further read-out of MT1-MMP act inh, marked with its call; RFP signal change, %; measured here: RFP expression control read;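 0 = vehicle wells; hits needed this value within 50% of zero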
Numbers without * were called inactive; i = inactive; ? = inconclusive; nt = no result given.

SMILES	eIF4H FP inh	MT1-MMP act inh	MT1-MMP act inh RFP	PABP polyA inh	Rce1 inhib	Yeast UUG start	CSC inhib	HIV Env fusion	others
CCN(C(=O)COC(=O)/C=C/c1c(C)nn(-c2ccccc2)c1C)C1CCS(=O)(=O)C1 (configuration not stated)	-1.4	3.8	1.7	-0.7	i	-12.2	-5.4	-15.0
O=C1N(c2cccc(Cl)c2)C(c2ccc(Cl)cc2)N2CCCN12 (configuration not stated)	-5.8	0.3	0.2	-11.9	i	nt	-6.8	-30.1
CCN(CC)S(=O)(=O)c1cc([N+](=O)[O-])ccc1NNC(=O)Nc1ccccc1	-3.4	nt	nt	2.5	i	nt	2.7	-6.1
O=C(Nc1ncc(Br)s1)C1CCCN1S(=O)(=O)c1cccc2cccnc12 (configuration not stated)	1.5	0.5	1.8	-10.3	i	-4.7	2.8	13.5
Cn1c(=O)c2cc(NC(=O)NCCc3cccs3)ccc2n1C/C=C/c1ccccc1	nt	7.1	-3.0	nt	nt	-15.4	nt	-12.2
CNC(=O)c1ccc(-c2ccc(OC)cc2)s1	-2.8	-0.2	1.8	-7.4	i	-25.9	6.7	nt
COc1ccc(C(=O)COC(=O)c2cc(=O)c3ccccc3o2)cc1	nt	-1.8	8.7	nt	nt	-17.3	nt	-7.4
CC(C(=O)Nc1nc(-c2ccc(F)c(F)c2)cs1)N1C(=O)C2CC=CCC2C1=O (configuration not stated)	nt	-2.1	-2.3	nt	nt	-0.3	nt	2.4
O=C(CCn1c(=O)[nH]c2ccsc2c1=O)N1CCN(c2cccc(Cl)c2)CC1	-2.9	2.6	-2.7	2.1	i	-3.3	52.4	-45.2
Cc1ccc(/C(O)=C2/C(=O)C(=O)N(CC(=O)O)C2c2ccc([N+](=O)[O-])cc2)cc1 (configuration not stated)	-10.4	4.0	2.7	3.6	nt	-10.0	-3.6	-33.7
O=C(NC1CCSC1=O)C1CC(=O)N(c2ccc(F)cc2)C1 (configuration not stated)	2.3	3.6	5.3	4.7	i	-4.5	nt	-8.3
O=[N+]([O-])c1cccc(COc2cccc(CN3CCOCC3)c2)c1	nt	1.3	-3.1	nt	nt	-20.4	nt	9.5
CCOc1ccc(C(=O)CCC(=O)N(CC)CC(=O)NCc2cccs2)cc1	nt	-2.1	-0.4	nt	i	15.0	1.1	2.7
Cc1ccc(C(=O)N2CCN(c3nc4ccccc4n3C)CC2)cc1	-0.3	6.4	1.3	2.0	i	-10.3	3.0	15.4
CCc1ccc(/C=C\C(=O)N2CCc3ccccc3C2)cc1	4.2	5.6	4.4	-2.4	i	nt	2.6	nt
Cc1ccc(S(=O)(=O)N2CCCCC2)cc1NC(=O)CNCc1ccco1	83.0*	4.5	2.0	2.4*	i	-5.7	4.0	-5.5	eIF4H FP inh retest=80.8*;PABP polyA inh retest=90.7*
CC(C)NC(=O)CN1C(=O)CSc2ccc(S(=O)(=O)N3CCCC3)cc21	6.3	2.6	3.1	-8.1	i	-22.0	-10.5	6.0
CC(=O)c1c(C)[nH]c(C(=O)NCc2cccc(Cl)c2)c1C	-5.8	2.7	0.9	-2.6	i	nt	5.6	-21.3
COc1cccc(-c2csc(N3CCN(C(=O)C4CCCCC4)CC3)n2)c1	-10.3	-2.7	-1.2	1.4	i	-11.8	nt	-20.0
O=C(COC(=O)c1ccccn1)NCCCc1ccccc1	-3.0	1.2	3.2	-0.5	i	nt	10.9	nt
COc1ccc(CCNC(=O)CNC(=O)c2ccc3c(c2)OCO3)cc1OC	-0.3	-2.1	2.7	7.3	i	-15.3	6.1	-16.2
CCN(c1cccc(C)c1)S(=O)(=O)c1c(C)[nH]c(C)c1C(=O)N1CCCCC1	1.9	-1.8	1.0	9.3	i	12.5	-13.4	0.0
O=C1c2ccccc2CCCC12N=NCC2c1cccc2ccccc12 (configuration not stated)	5.2	1.1	-4.1	7.3	i	-25.8	nt	11.3
COc1ccc(CCNC(=O)CSC(=O)c2ccccc2)cc1OC	4.5	-4.3	-2.8	2.2	i	nt	9.0	-11.9
C[C@@H]1CN([C@H](C)CO)C(=O)CCCn2nncc2CO[C@@H]1CN(C)S(=O)(=O)c1ccccc1C#N	nt	-0.4	4.0	nt	nt	6.8	nt	-4.5
CCn1c(SCC(=O)N2CCc3ccccc3C2)nc2sc(C)c(C)c2c1=O	-0.2	2.7	4.2	-5.5	i	3.5	48.0	10.6
O=C(CN1CCc2ccccc2C1)NCc1ccco1	-0.9	-3.6	3.0	2.9	i	4.4	9.5	-0.1
COc1ccc(C(=O)OCC(=O)c2c(N)n(C)c(=O)n(C)c2=O)cc1OC	9.1	1.0	3.0	0.5	i	nt	-0.4	3.0
CCC(=O)Nc1ccc(C(=O)N/N=C/c2cc(Br)c(OC)cc2OC)cc1	4.4	1.0	0.3	5.0	i	nt	-13.4	nt
COc1cc(OC)cc(-c2cc3cc(F)ccc3cn2)c1	nt	-0.3	0.4	nt	nt	-3.1	42.6	30.1

Sorted by SMILES length (descending): three of the compounds above.
SMILES	eIF4H FP inh	MT1-MMP act inh	MT1-MMP act inh RFP	PABP polyA inh	Rce1 inhib	Yeast UUG start	CSC inhib	HIV Env fusion	others
CCN(c1cccc(C)c1)S(=O)(=O)c1c(C)[nH]c(C)c1C(=O)N1CCCCC1	1.9	-1.8	1.0	9.3	i	12.5	-13.4	0.0
CCC(=O)Nc1ccc(C(=O)N/N=C/c2cc(Br)c(OC)cc2OC)cc1	4.4	1.0	0.3	5.0	i	nt	-13.4	nt
Cc1ccc(S(=O)(=O)N2CCCCC2)cc1NC(=O)CNCc1ccco1	83.0*	4.5	2.0	2.4*	i	-5.7	4.0	-5.5	eIF4H FP inh retest=80.8*;PABP polyA inh retest=90.7*

Remaining list, next part.
SMILES	eIF4H FP inh	MT1-MMP act inh	MT1-MMP act inh RFP	PABP polyA inh	Rce1 inhib	Yeast UUG start	CSC inhib	HIV Env fusion	others
CCn1c(CC(=O)Nc2ccc(C)c(Cl)c2)nnc1SCC(=O)Nc1nc(C)cs1	1.4	2.4	2.0	0.0	i	nt	0.3	-36.5
CC(Oc1ccc(Br)cc1)C(=O)N1CCC(C(N)=O)CC1 (configuration not stated)	-8.6	1.4	-0.6	-8.9	i	nt	7.8	-0.2
Cc1ccccc1OCCC(=O)OCC(=O)NCCNC(=O)COC(=O)CCOc1ccccc1C	nt	-1.1	3.8	nt	i	-17.8	12.6	nt
N#CNC(=Nc1ccc(Cl)cc1)Oc1ccccc1	0.4	-1.6	-7.1	11.4	i	nt	6.9	1.5
O=C(C(=O)N1CCOCC1)c1cn(CC(=O)N2CCCCC2)c2ccccc12	-14.6	-1.4	-3.2	0.3	i	-18.4	-7.8	7.7
CCOC(=O)C(NC(C)=O)C(O)c1ccc([N+](=O)[O-])cc1 (configuration not stated)	1.4	-0.4	0.6	-12.0	i	1.1	3.2	-3.0
c1ccc(OCCCCn2cnc3ccccc32)cc1	3.4	-6.5	-19.2	-3.2	i	-11.9	-8.0	nt
CCc1ccccc1NC(=O)CNC(=O)c1ccccc1OCc1c(C)noc1C	nt	-1.6	1.4	nt	i	-1.7	-8.0	-5.9
O=C(/C=C/c1ccccc1Cl)NC1CCS(=O)(=O)C1 (configuration not stated)	0.2	5.4	2.8	-6.3	i	nt	nt	-1.8
COc1cc(/C=N/NC(=O)Nc2cccc3nsnc23)cc(OC)c1OC	-6.3	-7.6	-5.8	0.6	i	nt	nt	nt
CN1C2CCC1CC(NC(=O)CSc1ccc(Cl)cc1)C2 (configuration not stated)	11.0	-8.2	-1.4	17.5	i	nt	-17.7	-11.7
Cc1onc(-c2ccncc2)c1C(=O)O	-1.2	-1.8	0.8	-3.9	i	-22.1	-8.1	nt
COc1ccccc1-c1cn[nH]c1-c1ccc(OCc2ccc(F)cc2)cc1O	-3.3	5.1	-4.7	-7.7	i	-15.8	?	-19.6
CC1CC(C)CN(S(=O)(=O)c2ccc(C(=O)Nc3nnc(-c4cccs4)o3)cc2)C1 (configuration not stated)	11.9	-2.8	-8.2	-2.6	i	-7.5	44.5	nt
O=C(Oc1ccc(N2C(=O)CCC2=O)cc1)c1ccccc1Cl	-5.1	-0.1	0.7	15.2	i	-14.6	10.2	nt
Cc1cccc(OCc2nnc(SCC(=O)NCCc3ccccc3)o2)c1	-9.8	-3.2	5.1	-1.0	i	-13.5	-6.5	nt
Cc1ccc(S(=O)c2snnc2C)cc1 (configuration not stated)	-13.2	-1.9	1.9	1.1	i	-12.6	nt	8.0
c1ccc(CCCNc2ncnc3nc[nH]c23)cc1	-8.7	1.6	-7.3	17.3	i	-7.8	-4.7	-25.4
CN1C(=O)/C(=C/c2ccc(O)c([N+](=O)[O-])c2)NC1=S	1.2	13.5	-4.5	10.2	i	nt	0.4	-23.8
COc1ccc(S(=O)(=O)N2CCC(C(=O)N[C@@H](C)C(=O)NC3CCCC3)CC2)cc1	-10.3	3.0	-0.8	-2.0	i	-26.6	-9.9	-1.4
Cc1cc(S(=O)(=O)Nc2cccc([N+](=O)[O-])c2)c(C)s1	0.1	-1.6	-3.7	5.7	i	2.6	-9.4	-1.9
CC1CCCCC1NC(=O)C1CCN(S(=O)(=O)N2CCCCCC2)CC1 (configuration not stated)	11.4	2.1	-0.2	0.4	i	-9.8	-2.2	-17.5
Cc1cccc(Nc2nc(-c3ccc(O)c(O)c3)cs2)n1	12.1	-4.6	-12.7	3.1	i	-4.8	57.5	-154.1
CCOC(=O)COn1c(-n2nc(C)cc2C)nc2ccccc2c1=O	9.2	-1.2	-0.5	8.9	i	-9.6	-0.8	13.9
CN1CCN(C(=O)C2CCN(S(=O)(=O)c3ccc4c(c3)oc(=O)n4C)CC2)CC1	-5.8	1.0	3.0	-20.9	nt	-9.8	-4.9	3.4
Cc1cc(C(=O)CCC(=O)Nc2ccc(C(N)=O)cc2)c(C)s1	nt	2.3	5.1	nt	nt	-7.4	nt	16.1
O=C(NCC(c1ccco1)N1CCc2ccccc2C1)c1cccc(F)c1 (configuration not stated)	nt	-2.5	2.5	nt	i	-13.7	-6.5	-16.9
Nc1c(C(=O)O)nnn1Cc1ccccc1	9.8	-3.1	-3.5	3.1	i	-12.8	-6.5	40.0
Cc1ccc(N/C=C2\CCCCC2=O)nc1	-1.4	0.5	-3.1	41.2	i	-11.2	-9.7	-11.0
C[C@@H](CN1C2=NC[C@H](Cc3ccccc3)N2C[C@H]1Cc1ccc(O)cc1)NC(=O)CCC1CCCCC1	-2.8	1.4	-3.5	-7.3	i	2.4	-5.9	1.6
O=C(c1ccc(Cl)c(F)c1F)N1CCOCC1	3.0	0.9	3.1	-1.8	i	-20.1	-11.5	-26.0
CCCn1c(SCC(=O)NC)nc2sc3c(c2c1=O)CCC3	-3.1	7.7	2.1	0.6	i	9.0	-10.9	-42.4
COCCCNC(=O)/C(=C\c1cccn1C)NC(=O)c1cccs1	42.1	-2.2	3.7	12.8	i	-23.2	2.9	-28.5
O=C(Nc1cc(Cl)ccc1Cl)C1CC(=O)N(c2ccccc2)C1 (configuration not stated)	-0.7	1.7	3.3	-0.9	i	-3.6	-23.2	3.9

Some of the compounds tested; rates above refer to the full screens.
